# Vif A3G: inhibitors of Vif binding to APOBEC3G peptide, primary screen, biochemical, TR-FRET, GST-Vif 1-94, biotin-A3G peptide, dose response retest (AID 1117319) | Virion infectivity factor (Human immunodeficiency virus type 1 group M subtype B (isolate … | TR-FRET GST-Vif / biotin-A3G peptide binding; higher % means a stronger effect; test concentration not given here; strong numbers were not always called active | inhibition, %, or IC50 in µM where a hit was titrated | 0.57% of 260,000 active;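 active = above the screen mean plus three standard deviations and confirmed in dose response; inconclusive = results disagree or hit not tested in dose response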;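 also: Vif residues 1-94 fused to GST binding biotinylated APOBEC3G peptide 110-148; 0% = full assay without inhibitor and 100% = GST in place of GST-Vif; retest series ran down from 100 µM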
# FGF22 binding: binders of human FGF22 protein, primary screen, FGF22 synaptogenesis inhibitor project, biophysical, thermal shift, single point | recombinant FGF22 thermal shift, SYPRO orange fluorescence; percent of sucrose octasulfate shift, DMSO zero | calls only at 9.99 µM | Fibroblast growth factor 22 (Homo sapiens), Q9HCT0 | 1.5% of 340,000 active;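 active = melting point raised past a set limit in the mean and every replicate; inconclusive = no clear call; three in four hits are not shown here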
# HNF4A DNA FP: change in binding of human HNF4A to DNA, primary screen, biochemical, fluorescence polarization, FITC-DNA | 1 h | activity change, % at 10 µM | 0.3% of 360,000 active | AID 1224865, 2016; in the data active = activity change above about 30%, passing the limit was not always enough;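 also: controls were the assay level and a saturating level of protein; the project sought stronger binding though the title names inhibitors; some compounds called inactive have numbers as strong as hits; positive values seem to mean higher polarization but the record does not say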
# Target sequence (P41235 whole entry, looked up): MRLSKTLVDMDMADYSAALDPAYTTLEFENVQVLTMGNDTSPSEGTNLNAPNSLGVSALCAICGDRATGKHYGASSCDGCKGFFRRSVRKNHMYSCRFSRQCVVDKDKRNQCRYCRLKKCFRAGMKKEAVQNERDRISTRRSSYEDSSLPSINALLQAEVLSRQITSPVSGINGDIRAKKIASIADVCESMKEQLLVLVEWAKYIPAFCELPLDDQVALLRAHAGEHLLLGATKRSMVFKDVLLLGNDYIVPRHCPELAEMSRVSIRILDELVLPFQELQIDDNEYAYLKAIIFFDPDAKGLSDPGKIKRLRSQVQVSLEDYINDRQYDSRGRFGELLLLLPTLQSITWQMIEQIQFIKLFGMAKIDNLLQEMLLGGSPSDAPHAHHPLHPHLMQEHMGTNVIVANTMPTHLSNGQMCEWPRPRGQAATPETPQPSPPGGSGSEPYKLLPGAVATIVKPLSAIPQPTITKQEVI
# Ecoli rRNA inh: reduced GFP signal of wild-type E. coli, primary screen, bacterial rRNA inhibitor project, GFP/RFP fluorescence, OD600, single point; E. coli WT GFP vs humanized-ribosome RFP mutants, 24 h; hits give low values; DMSO median 0, no signal -100; 1.6% of 350,000 active; AID 720706, 2013; GFP signal change (wild-type ribosome), % (no concentration beside the values);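 active = significant combined selectivity score with lowered wild-type GFP, culture density cut under 30%, mutant RFP and density less affected; inactive = any of these conditions unmet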; also: one replicate is shown; some compounds called inactive have numbers as strong as hits
# ALR inh: inhibitors of human ALR sulfhydryl oxidase, primary screen, biochemical, H2O2 detection, HRP-luminol luminescence, single point | FAD-linked sulfhydryl oxidase ALR (Homo sapiens), P55789 | 3.8% of 290,000 active | purified ALR, DTT oxidation | inhibition, % (no concentration beside the values);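 active = mean and each replicate at 75% or more; inconclusive = only one of the two met; inactive = neither met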;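 also: stock transfer was 7.5 nL into about 7.5 µL; 0% = neutral wells and 100% = wells with inactivated enzyme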
# AF4-AF9 inh: inhibitors of AF4 peptide binding to AF9, primary screen, biochemical, AlphaScreen, biotin-AF4 peptide, FLAG-AF9, single point; Protein AF-9 (Homo sapiens), P42568; inhibition, % at 10 µM; 0.47% of 350,000 active; AID 651704, 2012;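 active = every replicate reaching a set inhibition limit, whatever the replicate mean, cut at about 25% in these data; inconclusive = mean inhibition reaches that limit but some replicates miss it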;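 also: 0% = plate neutral control median and 100% = total signal loss; the record names both 10 and 1 µM as test concentration; the first replicate is given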
# Target sequence (P42568 whole entry, looked up): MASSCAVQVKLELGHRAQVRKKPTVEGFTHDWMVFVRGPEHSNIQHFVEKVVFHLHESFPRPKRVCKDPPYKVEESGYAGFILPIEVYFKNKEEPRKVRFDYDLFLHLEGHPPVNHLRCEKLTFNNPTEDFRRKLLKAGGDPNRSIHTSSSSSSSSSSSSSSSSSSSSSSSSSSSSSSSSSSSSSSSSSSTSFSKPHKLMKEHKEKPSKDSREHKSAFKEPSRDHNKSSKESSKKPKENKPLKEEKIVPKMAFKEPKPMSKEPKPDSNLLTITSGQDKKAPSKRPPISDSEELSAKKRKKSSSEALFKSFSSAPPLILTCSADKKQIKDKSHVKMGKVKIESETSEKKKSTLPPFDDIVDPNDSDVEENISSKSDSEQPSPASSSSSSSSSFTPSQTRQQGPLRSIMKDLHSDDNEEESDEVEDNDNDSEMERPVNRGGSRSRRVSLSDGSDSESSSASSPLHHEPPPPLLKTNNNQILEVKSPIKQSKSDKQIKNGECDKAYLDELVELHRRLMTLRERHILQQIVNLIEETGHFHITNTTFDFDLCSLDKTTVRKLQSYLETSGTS
# Ecoli growth: E. coli growth inhibition, primary screen, OD600; Escherichia coli growth, 23 h; hits give low values; OD600 absorbance (no concentration beside the values); 0.21% of 330,000 active;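 active = OD600 absorbance below the run mean of sample wells minus 3.6 SD, in any replicate, cut at about 0.56 in these data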;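 also: stock transfer was 300 nL into about 60 µL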
# Ecoli rRNA inh OD600: further read-out of Ecoli rRNA inh, marked with its call; OD600 change, %; measured here: OD600 growth;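 optical density of the mix in the first replicate; 0 = DMSO median and -100 = no signal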
# Ecoli rRNA inh RFP: also measured in Ecoli rRNA inh; calls as there; RFP signal change, %; measured here: RFP humanized mutant strains;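 first replicate; 0 = DMSO median and -100 = no signal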
# An asterisk follows results filed as active; i = inactive; ? = inconclusive; / = not tested or not shown. These rows are one share of the data, so the mix of outcomes need not match the whole.
SMILES,Vif A3G,FGF22 binding,HNF4A DNA FP,Ecoli rRNA inh,Ecoli rRNA inh OD600,Ecoli rRNA inh RFP,ALR inh,AF4-AF9 inh,Ecoli growth
COc1ccc(C2CC(c3ccccc3)=NN2C(=O)COC(=O)COc2ccccc2)cc1 (centres undefined),-5%,/,-0.6,25,20,5.6,-2,0.5,0.73
CCOc1ccccc1NCc1cc(=O)oc2cc(C)ccc12,14%,i,-0.7,-4,-5,-2.5,18,-1.1,0.61
COc1ccc(-c2cc3nc(CCl)[nH]c(=O)c3s2)cc1,/,i,8.3,4,8,1.8,8,0.3,/
NC(Cc1ccc(C(F)(F)F)cc1)c1csc(NC(=O)NCCc2ccccc2)n1 (centres undefined),/,i,2.6,-60,-77,-19,/,8.9,/
CCCOc1ccc(C(=O)c2ccccc2C(=O)OC2CCOC2=O)cc1OCCC (centres undefined),-12%,i,-0.5,1,10,0.3,10,3.1,0.67
O=C(CCc1nnc(COc2ccccc2)o1)NC1(c2ccccc2)CC1,-5%,i,0.9,8,0,-1.8,-5,4.3,0.7
OCC(C#CCN1CCCCC1)NCc1ccccc1 (centres undefined),-6%,/,0.0,/,/,/,2,/,0.65
Cc1ccc(S(=O)(=O)N2[C@@H](c3cccc4ccccc34)C(C(=O)O)=C[C@H]2C(C)(C)C)cc1,4%,i,-0.3,-10,-10,-8.5,9,-3.5,0.67
CCOC(=O)N1CCN(C(=O)c2cc(S(=O)(=O)N3CCc4ccccc43)ccc2OC)CC1,-3%,i,-2.0,3,-4,4.2,-2,1.3,0.71
CCOC(=O)N(C)c1c(CC)nc2c(OCc3ccccc3C(=O)OC)cccn12,/,i,1.1,5,-7,3.4,/,2.2,/
Cc1n[nH]c(C)c1SCC(=O)Nc1ccc(F)cc1,18%,/,1.5,/,/,/,71,/,0.78
COc1ccc(/C=N/NC(=O)c2cc[n+]([O-])cc2)cc1,/,i,0.4,0,12,-0.9,/,-2.5,/
O=C(O)CCCCCN1C(=O)/C(=C\c2ccncc2)SC1=S,/,/,-1.1,/,/,/,-32,/,0.68
CC(C)CNC(=S)N(CCCN(C)C)Cc1cc2cc3c(cc2[nH]c1=O)OCCO3,/,i,1.8,9,7,1.2,-24,0.1,0.71
Cc1ccc(/C=C/C(=O)Nc2cc(S(N)(=O)=O)ccc2O)cc1,-2%,i,-5.4,-7,-3,-2.6,2,-0.7,0.7
Cc1ccc(S(=O)(=O)/N=C(/c2ccccc2)N2CCOCC2)c(C)c1,5%,i,2.3,8,2,0.4,-1,-2.1,/
O=C1Nc2ncccc2OC1CCO (centres undefined),-4%,/,-1.7,/,/,/,-1,/,0.71
O=C(Nc1cccc(O)c1)c1noc2c1CCCCC2,5%,i,1.7,-6,-4,0.2,33,4.0,0.69
COc1ccc2oc(=O)c(-c3csc(Nc4ccc(O)cc4)n3)cc2c1,12%,/,1.2,/,/,/,/,/,0.66
Cc1cc(C)c2c(N)c(C(=O)c3ccccc3Cl)sc2n1,-38%,i,1.5,10,15,-0.1,-7,/,0.66
COc1ccc(C(=O)n2c(-c3ccco3)nc3ccccc32)cc1,13%,/,2.9,/,/,/,-15,/,0.74
COc1ccc(S(=O)(=O)NCCc2ccccc2)cc1,5%,/,-0.9,/,/,/,-1,/,0.67
C[C@@H]1CCCCO[C@H](CN(C)S(=O)(=O)c2ccc(Cl)cc2)[C@@H](C)CN([C@H](C)CO)C(=O)c2cc(NC(=O)CCCCCC(=O)Nc3ccccc3N)ccc2O1,/,i,/,-2,2,0.3,/,-2.8,/
O=S(=O)(c1ccc(F)cc1)N1CCC(n2cnc3ccccc32)CC1,5%,i,-3.0,2,6,-2.0,-1,-1.4,0.69
COC(=O)c1ccc(CN2C(=O)NC(CC(C)C)C2=O)cc1 (centres undefined),5%,i,1.8,21,14,1.1,-2,-2.5,0.62

# 4 of the compounds above, with tabs.
molecule	Vif A3G	FGF22 binding	HNF4A DNA FP	Ecoli rRNA inh	Ecoli rRNA inh OD600	Ecoli rRNA inh RFP	ALR inh	AF4-AF9 inh	Ecoli growth
COc1ccc2oc(=O)c(-c3csc(Nc4ccc(O)cc4)n3)cc2c1	12%	/	1.2	/	/	/	/	/	0.66
NC(Cc1ccc(C(F)(F)F)cc1)c1csc(NC(=O)NCCc2ccccc2)n1 (centres undefined)	/	i	2.6	-60	-77	-19	/	8.9	/
CCOC(=O)N(C)c1c(CC)nc2c(OCc3ccccc3C(=O)OC)cccn12	/	i	1.1	5	-7	3.4	/	2.2	/
O=C(O)CCCCCN1C(=O)/C(=C\c2ccncc2)SC1=S	/	/	-1.1	/	/	/	-32	/	0.68

# Going on with the list:
SMILES,Vif A3G,FGF22 binding,HNF4A DNA FP,Ecoli rRNA inh,Ecoli rRNA inh OD600,Ecoli rRNA inh RFP,ALR inh,AF4-AF9 inh,Ecoli growth
C=CC[N+](C)(C)CCCNC(=O)/C=N/O,/,i,-2.2,9,12,-9.1,3,1.2,/
COc1cc(S(=O)(=O)N2CCCC2)c(C)cc1C,-12%,i,6.4,-5,-14,-1.2,-1,0.0,0.7
O=C(NCCS(=O)(=O)NCc1ccccc1)c1ccccc1,-5%,i,-1.4,4,5,-1.8,-7,-31,0.63
C[C@H](CO)N1C[C@H](C)[C@@H](CN(C)C(=O)NC2CCCCC2)Oc2ccc(NC(=O)NC3CCCCC3)cc2CC1=O,/,i,/,0,13,-2.0,/,-0.7,/
COc1ccc(CCC(C)N2CCC(Oc3ccc(C(=O)N4CCCC4)cc3)CC2)cc1 (centres undefined),-2%,i,-1.6,-1,1,-1.4,-1,3.5,0.72
COc1ccc(-c2coc3c(C(=O)NC(C)C)cccc23)c(C)c1,/,i,-1.1,-51,-75,-13,/,0.9,/
O=C(NCc1ccccc1)[C@H]1[C@H](CO)[C@H]2Cn3c(cccc3=O)[C@@H]1N2Cc1ccccn1,/,i,/,1,5,0.6,/,-2.9,/
COc1ccc(C(CC(=O)N2CCCC2)c2ccc(F)cc2)cc1 (centres undefined),-4%,/,2.1,10,0,-4.8,-6,1.1,0.67
CN(C(=O)COC(=O)Cc1ccccc1[N+](=O)[O-])C1CCS(=O)(=O)C1 (centres undefined),/,i,-4.0,6,17,-1.5,-20,-1.6,0.69
CC(C)=CCN1CCN(Cc2cccn2-c2ccccn2)CC1CCO (centres undefined),25%,i,-0.1,7,4,1.1,-3,3.9,0.7
COC(=O)COn1c(-n2nc(C)cc2C)nc2ccccc2c1=O,9%,/,0.5,/,/,/,-1,/,0.7
CCC1OC2(C)OC(=N)C1(C#N)C(C#N)(C#N)C2c1ccccc1 (centres undefined),/,i,-2.7,22,-8,18,-20,9.5,0.64
Cc1ccc(Cn2cc(CN3CC(N4CCSCC4)CS3(=O)=O)nn2)cc1 (centres undefined),/,i,-1.5,5,17,5.4,/,-0.5,/
O=C(NC1CCCCCC1)C(=S)N1CCOCC1,-11%,i,-6.1,7,2,-3.5,20,-3.1,0.69
C/C(=N\NC(=O)c1c(Br)c(C)nn1C)c1cccc(NC(=O)c2ccccc2F)c1,16%,/,1.1,/,/,/,-4,/,/
Cn1nc(C(C)(C)C)cc1C(=O)NN1CCOCC1,?,i,-0.8,8,16,0.1,-9,-0.9,0.7
COc1ccc(NC(=S)NCc2ccco2)c(OC)c1,5%,/,3.9,/,/,/,-22,/,0.76
C[C@@H]1CN([C@@H](C)CO)C(=O)CCCn2cc(nn2)CO[C@H]1CN(C)Cc1ccc(-c2ccccc2)cc1,/,i,/,-1,-2,0.3,/,1.0,/
O=C(NC1CCCc2ccccc21)c1ccccc1Cl (centres undefined),-2%,i,7.7,3,-7,-5.6,-20,-0.9,0.63
COc1cccc(-n2nc(C(=O)N3CCN(Cc4ccccc4)CC3)c3ccccc3c2=O)c1,8%,i,0.9,-17,-11,-2.1,0,2.2,0.7
O=[N+]([O-])c1ccc(N/N=C/c2c[nH]c3ccccc23)cc1,2%,/,78*,/,/,/,-5,/,/
O=C(C[C@@H]1CC[C@@H](NC(=O)CN2CCOCC2)[C@H](CO)O1)NCc1cccc(F)c1,/,i,/,3,-9,-0.9,/,-1.9,/
Cc1cc(C(=O)CN2c3cccc4cccc(c34)S2(=O)=O)c(C)n1C,-3%,i,-3.3,/,/,/,-4,2.5,0.71
Cc1ccc(NC(=O)COC(=O)[C@H](C)NC(=O)c2ccccc2)cc1S(=O)(=O)N1CCOCC1,/,i,0.5,0,0,-3.1,-2,-2.7,0.69
CC(=O)N1CCN(c2ccc(N=Cc3c(O)n(Cc4ccccc4)c(=O)[nH]c3=O)cc2)CC1,15%,/,2.5,/,/,/,/,/,0.77
# Other entries
SMILES,Vif A3G,FGF22 binding,HNF4A DNA FP,Ecoli rRNA inh,Ecoli rRNA inh OD600,Ecoli rRNA inh RFP,ALR inh,AF4-AF9 inh,Ecoli growth
Cc1noc(C)c1S(=O)(=O)Nc1ccc2c(c1)C(=O)N([C@H](C)CO)C[C@H](C)[C@@H](CN(C)S(=O)(=O)c1ccc(Cl)cc1)OCCCC[C@@H](C)O2,/,i,/,0,-3,-0.1,/,0.6,/
CC1=CC(=O)C=C(C)C1=NOc1ccccc1[N+](=O)[O-],20%,/,-1.3,/,/,/,13,/,0.73
Cc1ccc(S(=O)(=O)Nc2cccc3c2O[C@@H](CN(C)Cc2ccc(Cl)c(Cl)c2)[C@H](C)CN([C@H](C)CO)C3=O)cc1,/,i,/,-1,7,-1.7,/,-21,/
CN(CC(=O)Nc1ccccc1Br)C(=O)COc1cccc2c1OC(C)(C)C2,4%,i,-1.8,0,2,-0.2,-8,0.1,0.69
N#Cc1c(-c2ccccc2)cc(-c2cccs2)nc1SCC(=O)O,5%,i,-1.2,-50,-69,-11,99*,-7.6,0.59
CC(C)NC(=O)C(=O)NCc1ccccn1,2%,i,2.0,17,8,-2.1,1,-0.6,0.71
O=C(C[C@@H]1CC[C@@H]2[C@H](COC[C@H](O)CN2C(=O)c2ccc3c(c2)OCO3)O1)NCCN1CCCC1,/,i,/,3,-2,0.4,/,-0.1,/
CCc1ccccc1NC(=O)CCNC(=O)Cn1ccc2ccccc2c1=O,-2%,i,0.8,5,14,14,/,-6.5,0.66
CC(=O)c1ccc(NC(=S)NNC(=O)c2ccncc2)cc1,/,i,-1.0,15,11,2.1,/,4.6,0.68
O=C(CN1CCC(O)(c2ccc3c(c2)OCO3)CC1)N1CCOCC1,2%,/,1.9,/,/,/,/,/,0.68
CCCNc1c(NS(=O)(=O)c2ccc(Br)cc2)c(=O)oc2ccccc12,26%,i,-2.7,6,6,-1.7,71,-0.2,0.66
CCCNS(=O)(=O)c1ccc(NC(=O)Cc2cccs2)cc1,9%,/,4.9,/,/,/,-6,/,0.68
N#CCCn1ncn(-c2ccccc2)c1=S,16%,/,3.9,/,/,/,-5,/,0.78

# Arranged by the number under HNF4A DNA FP (largest number first): some entries from above.
canonical_smiles	Vif A3G	HNF4A DNA FP	Ecoli rRNA inh	Ecoli rRNA inh OD600	Ecoli rRNA inh RFP	ALR inh	AF4-AF9 inh
N#CCCn1ncn(-c2ccccc2)c1=S	16%	3.9	/	/	/	-5	/
CCc1ccccc1NC(=O)CCNC(=O)Cn1ccc2ccccc2c1=O	-2%	0.8	5	14	14	/	-6.5
CC1=CC(=O)C=C(C)C1=NOc1ccccc1[N+](=O)[O-]	20%	-1.3	/	/	/	13	/

# Bioassay records (PubChem)
